# Screening data as filed in PubChem BioAssay.
# Yeast UUG start – modulators of start codon recognition fidelity in yeast. S. cerevisiae UUG-firefly luciferase reporter, luminescence/redox ratio. activity score, % at 18.7 µM. 0.13% of 350,000 active. AID 602363;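 active means replicate mean at a twofold rise or more, about +100% in these data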;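 further: firefly luciferase made from a UUG start codon reports start codon fidelity; reporter light over untreated wells divided by growth signal over untreated wells; some hits fall short of that in this replicate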
# CSC inhib – cancer stem cell inhibition; cancer stem cell-like cells viability, luminescence; inhibition, % at 7.5 µM; 1.1% of 300,000 active; AID 2717;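 active means mean at 75% or more and at least half the replicates too; inconclusive means mean and replicates disagree; tested in HMLE shEcad cells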;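 further: 0% = median of negative and 100% = median of positive control wells; the first replicate is given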
# PABP FP inh – blocks human PABP binding to poly(A) RNA; fluorescence polarization; 1% of 290,000 active; inhibition, % at 35 µM; AID 2014; P11940;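 active means 50% or more with normal probe brightness, or confirmed in later tests; inconclusive means above 50% with abnormal brightness, or retests that disagree; inactive means below 50% or failed in later tests; about a fifth of its hits are not listed in these tables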;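 further: calls also rest on retests at 20 µM and on dose response follow-up; controls were probe without protein and protein plus probe with vehicle; some compounds called inactive have numbers as strong as hits; many hits fall short of the cut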
# Target sequence (P11940 whole entry, looked up): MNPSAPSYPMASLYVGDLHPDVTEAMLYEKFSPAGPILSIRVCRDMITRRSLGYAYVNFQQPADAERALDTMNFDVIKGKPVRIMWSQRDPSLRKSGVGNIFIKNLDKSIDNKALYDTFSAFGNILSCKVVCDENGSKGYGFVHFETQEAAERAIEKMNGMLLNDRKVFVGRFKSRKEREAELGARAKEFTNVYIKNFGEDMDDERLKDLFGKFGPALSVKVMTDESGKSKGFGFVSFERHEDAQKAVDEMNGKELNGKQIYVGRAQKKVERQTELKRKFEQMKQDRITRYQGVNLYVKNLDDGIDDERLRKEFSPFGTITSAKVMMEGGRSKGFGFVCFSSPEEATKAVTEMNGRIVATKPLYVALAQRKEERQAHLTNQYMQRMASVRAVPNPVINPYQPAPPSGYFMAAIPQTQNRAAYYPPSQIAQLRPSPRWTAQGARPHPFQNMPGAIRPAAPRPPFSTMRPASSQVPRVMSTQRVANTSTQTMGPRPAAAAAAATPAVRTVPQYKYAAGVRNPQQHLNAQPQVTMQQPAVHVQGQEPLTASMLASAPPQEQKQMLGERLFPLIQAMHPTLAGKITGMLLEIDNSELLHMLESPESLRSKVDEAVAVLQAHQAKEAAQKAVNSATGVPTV
# MT1-MMP act inh – blocks activation of human MT1-MMP. P50281. HT1080 RFP-PRO-GFP cells, GFP/RFP ratio fluorescence, overnight; percent of plate control window, DMSO zero. GFP/RFP ratio change, % at 20 µM. 0.061% of 360,000 active;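 active means GFP/RFP ratio change of at least 30% with cell ATP level not reduced by more than half and red fluorescence within 50% of control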; further: strong numbers were not always called active
#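 Assay system: HT1080 RFP-PRO-GFP cells. Benchmarks: DMSO vehicle wells and RFP-L50D-GFP reporter cell wells. Times: overnight cell settling, then overnight compound exposure, 37 °C, 5% CO2. Compound: 20 µM single dose, 1% DMSO. Read-out basis: GFP/RFP fluorescence ratio.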
# Rce1 inhib – yeast Ras-converting enzyme inhibition; Q03530; yeast membranes, quenched prenylated peptide cleavage fluorescence; calls only; 0.27% of 290,000 active; AID 2563;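 active means fall in fluorescence gain of 50% or more versus controls, with final raw signal at or below 3038400; inconclusive means same 50% fall but final raw signal above 3038400; inactive means fall in fluorescence gain under 50%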;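 further: plate controls were neutral control wells for no effect and wells lacking membranes for full effect; tested at 10 µM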
# Target sequence (Q03530 whole entry, looked up): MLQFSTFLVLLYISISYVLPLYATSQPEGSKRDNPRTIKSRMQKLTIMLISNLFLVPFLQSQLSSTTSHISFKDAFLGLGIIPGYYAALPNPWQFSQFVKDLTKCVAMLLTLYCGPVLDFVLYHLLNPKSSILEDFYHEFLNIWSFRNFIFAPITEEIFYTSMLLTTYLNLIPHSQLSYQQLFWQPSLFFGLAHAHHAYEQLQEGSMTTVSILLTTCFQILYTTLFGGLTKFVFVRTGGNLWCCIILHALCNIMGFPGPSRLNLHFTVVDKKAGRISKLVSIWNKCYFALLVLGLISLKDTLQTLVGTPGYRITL
# eIF4H FP inh – inhibitors of RNA binding by human eIF4H | eIF4H fluorescence polarization binding assay | AID 2012 | inhibition, % at 35 µM | Q15056 | 0.94% of 290,000 active;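 active means 50% or more with normal probe brightness, or confirmed in later tests; inconclusive means above 50% with abnormal brightness, or retests that disagree; inactive means below 50% or failed in later tests; about a fifth of its hits are not listed in these tables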;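 further: calls also rest on retests at 20 µM and on dose response follow-up; 0% = protein and probe with vehicle and 100% = probe without protein; strong numbers were not always called active; many hits fall short of the cut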
# HIV Env fusion – inhibitors of HIV Env-mediated cell fusion | inhibition, % at 12.3 µM | HeLa-JRFL Env/CEM21 cell fusion, luciferase | 1.1% of 360,000 active;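 active means mean replicate inhibition score of at least 50 and every replicate individually at or above 50; inconclusive means only one of the two criteria met; inactive means mean below 50 and not all replicates reaching 50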;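 further: 0% = plate neutral controls and 100% = maraviroc near 300 nM; one replicate is shown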
# eIF4H FP inh retest – also measured in eIF4H FP inh; calls as there; inhibition, %; compound at 20 µM; confirmation average;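 mean of two retest wells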
# PABP FP inh retest – also measured in PABP FP inh; calls as there; inhibition, %; compound at 20 µM; confirmation repeats;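 mean of two retest wells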
# MT1-MMP act inh RFP – also measured in MT1-MMP act inh; calls as there; RFP signal change, %; measured here: RFP expression control read;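 0 = vehicle wells; hits needed this value within 50% of zero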
# * hit, by the source's call; i = inactive; ? = inconclusive; . = no result given. This is a random part of the collection; any-hit rate near 2.9%.
SMILES,Yeast UUG start,CSC inhib,PABP FP inh,MT1-MMP act inh,MT1-MMP act inh RFP,Rce1 inhib,eIF4H FP inh,HIV Env fusion,others
CCN(CCCNC(=O)CC(C(=O)N1CCc2ccccc21)n1ccnc1)c1ccccc1 (centres undefined),-7,-6,-15,0,-4,i,-17,63*,
CCc1ccc(-c2nc(CSCC(=O)NC3CC3)c(C)o2)cc1,-14,-13,0,0,1,i,-6,13,
Cc1ccc(C)c(NC(=S)N(C)C)c1,-24,-8,1,0,3,i,-10,9,
COc1cccc(OCc2cc(C(=O)N(C)C3CCCCC3)no2)c1,-22,.,.,6,1,.,.,-48,
C=CC[C@@H](Cc1ccc(F)cc1)C(=O)OC[C@@H]1CCCN1C(=O)[C@@H](CC=C)CC(=O)N[C@@H](CO)Cc1ccccc1,13,.,.,1,-12,.,.,-59,
S=C(NCCC(c1ccccc1)c1ccccc1)Nc1ccc(Cl)cc1,-21,-1,15,5,-5,i,-7,.,
COc1cccc(Cn2c3ccc(NC(=O)CCc4ccc(F)cc4)cc3c(=O)n2C)c1,-3,.,.,12,-15,.,.,-69,
COc1ccccc1OCC(=O)N1CCN(C(=O)COc2ccccc2OC)CC1,7,.,5,0,1,i,9,-7,
Cc1ccc(N(C(=O)c2csnn2)C(C(=O)NC2CCCCC2)c2ccco2)cc1 (centres undefined),-15,0,2,3,6,i,7,-3,
CC(C)c1ccc(Nc2ncc3c(n2)CCN(C(=O)NC2CCCCC2)C3)cc1,-12,.,.,2,-5,.,.,6,
Cc1cccc(C(=O)Oc2ccc(/C=N/NC(=O)Cc3ccc([N+](=O)[O-])cc3)cc2)c1,-15,-11,31,-1,-3,i,-6,2,
Cc1ccc(C(=O)N2CCN(c3ccc(NC(=S)NC(=O)Cc4ccccc4)cc3)CC2)cc1,.,32,4,2,-11,i,2,40,
O=C(COC(=O)Cc1ccc(Br)cc1)Nc1c(F)c(F)c(F)c(F)c1F,-30,2,-5,3,4,i,2,-7,
O=C1CC(N2CCC(O)CC2)C(=O)N1c1ccc(Br)cc1 (centres undefined),-20,-4,-2,-7,-2,i,-3,.,
Cn1c(SCc2ccccc2)nnc1-c1c[nH]c2ccccc12,-10,2,-6,3,-6,i,6,-92,
Cc1cccc(C)c1OCC(=O)Nc1ccc2c(c1)OCCO2,-5,13,8,1,-6,i,-5,-103,
Oc1ccc(Cl)cc1/C=N/c1nc2ccccc2[nH]1,-19,-9,13,2,5,i,-4,-16,
O=C1CC(N2CCN(c3ccccc3)CC2)C(=O)N1c1ccc2c(c1)OCO2 (centres undefined),.,-7,5,3,1,i,1,-1,
O=C(NCC1CCCO1)c1cc2n(n1)C(C(F)(F)F)CC(c1ccc(F)cc1)N2 (centres undefined),-8,.,-5,5,10,i,-9,-44,
Clc1ccc(CSc2nnnn2-c2ccc3c(c2)OCO3)c(Cl)c1,.,82*,-3,-2,-2,i,-1,.,
CNc1ncnc2c1ncn2[C@H]1CN(Cc2ccccc2)C[C@@H](CO)O1,-5,.,.,3,5,.,.,-7,
O=C1NC2(CCCCC2)C(=O)N1CCS(=O)(=O)Oc1ccccc1,4,-11,-1,0,1,i,4,.,
CCC1C(=O)CC(c2ccc([N+](=O)[O-])cc2)NC1c1ccc([N+](=O)[O-])cc1 (centres undefined),.,59,-14,-7,-5,i,-7,-24,
CCOc1ccc(NC(=O)n2ncc3c(C)cccc32)cc1,-6,-3,-6,2,2,i,-5,-96,
Cc1cc(=O)n2nc(N3CCCC(C(=O)NC4CCCCC4C)C3)sc2n1 (centres undefined),4,-11,2,-4,-3,i,-1,7,
SMILES,Yeast UUG start,CSC inhib,PABP FP inh,MT1-MMP act inh,MT1-MMP act inh RFP,Rce1 inhib,eIF4H FP inh,HIV Env fusion,others
O=[N+]([O-])c1ccc(N2CCN(Cc3ccccc3)CC2)c(S(=O)(=O)N2CCOCC2)c1,2,-8,-4,0,-4,i,0,.,
COCCCNS(=O)(=O)c1ccc(C)cc1,.,-5,2,0,2,i,-5,-7,
COc1ccccc1-n1c(SCC(=O)O)nc2c(sc(=S)n2-c2ccc(C)c(C)c2)c1=O,-24,10,10,4,6,i,-7,-3,
Cc1ccc(-n2ncc3c2CC(C)(C)CC3NC(=O)C2CCOCC2)cc1 (centres undefined),17,-1,8,1,2,i,-2,4,
COc1ccc(CN2C(=O)CS/C2=N/N=C/c2ccccc2)cc1,-6,11,8,1,-13,i,-8,-21,
CCc1ccc(C2C(C(=O)O)c3ccccc3C(=O)N2C)cc1 (centres undefined),1,-7,14,7,3,i,2,.,
CN1C[C@@H]2[C@@H]3C(=O)N(Cc4ccccc4)C(=O)[C@@H]3[C@](Cc3ccccc3)(C1=O)N2C(=O)c1ccc(C(C)(C)C)cc1,20,.,.,-8,-20,.,.,12,
NNc1nc2c(-c3ccc(F)cc3)nnn2c2ccccc12,-13,41,6,-37,-21,i,-6,-80,
CCOC(=O)C1CCCN(C(c2ccccn2)c2c(C)[nH]c3ccccc23)C1 (centres undefined),.,1,3,-4,2,i,1,48,
CC(=O)c1ccc(NC(=S)NNC(=O)c2ccncc2)cc1,.,7,-6,-1,0,i,-5,-1,
COC(=O)CCC(=O)OC1(C)C(=O)C=C2C=C(C3CC3)N(Cc3ccco3)C=C2C1=O (centres undefined),-2,0,53*,-1,6,i,88*,-16,
CC(=O)c1cccc(NC(=O)CCc2nnc3ccc(N4CCOCC4)nn23)c1,-18,.,-5,4,5,i,-2,1,
COc1ccc(C(=O)NCc2nnc(SCC(=O)N3CCCCC3)o2)cc1OC,-8,6,-9,1,4,i,-8,.,
COc1ccc(OCc2nnc(SCC(=O)N(C)Cc3ccccc3)n2N)cc1,.,1,7,1,2,i,1,18,
CC1CCCN(c2sc(S(C)(=O)=O)nc2S(=O)(=O)c2ccc(Cl)cc2)C1 (centres undefined),-12,-9,12,-8,-6,i,-5,-5,
O=[N+]([O-])c1c(NCCCO)cc(SCc2ccco2)c2nonc12,.,2,-14,0,3,i,?,-37,PABP FP inh retest=-20
COc1ccc(S(=O)(=O)NCC2CCC(C(=O)O)CC2)cc1 (centres undefined),-14,-22,-3,-3,-3,i,73,7,eIF4H FP inh retest=-4;PABP FP inh retest=9
O=C(NC1CCN(C(=O)Nc2ccccc2Cl)CC1)c1cccc(F)c1,2,6,-7,6,4,.,-6,8,
COc1cc(/C=C/c2nc3ccccc3c(=O)[nH]2)cc(OC)c1OC,-4,7,-2,4,4,i,-11,2,
Cc1c(C(=O)NCc2ccc(C(F)(F)F)cc2)sc(=O)n1Cc1ccc(S(=O)(=O)N(C)C)cc1,-3,.,.,-5,-23,.,.,26,
Cc1cnc(NC(=O)CSc2nnc(C)n2N)s1,.,6,5,-2,5,i,1,.,
CC(NC(=S)Nc1ccc(S(N)(=O)=O)cc1)c1ccc2c(c1)OCO2 (centres undefined),.,4,-2,1,0,i,1,11,
Cc1cc(C)n(C(=O)c2nn(C)c(C)c2[N+](=O)[O-])n1,-20,-17,-8,2,3,i,-17,-63,
CCN(c1ccccc1)S(=O)(=O)c1cc(C(=O)Nc2cccc(Cl)c2)ccc1F,.,.,3,-11,-21,i,-14,10,
CC1(C)c2ccccc2N2CC(=O)N(CC(N)=O)C21C (centres undefined),-20,6,?,34,90,i,?,.,

# Three compounds from above, ordered by formula weight, lowest first.
SMILES,Yeast UUG start,CSC inhib,PABP FP inh,MT1-MMP act inh,MT1-MMP act inh RFP,Rce1 inhib,eIF4H FP inh,HIV Env fusion,others
CC(=O)c1ccc(NC(=S)NNC(=O)c2ccncc2)cc1,.,7,-6,-1,0,i,-5,-1,
O=C(NC1CCN(C(=O)Nc2ccccc2Cl)CC1)c1cccc(F)c1,2,6,-7,6,4,.,-6,8,
CC1CCCN(c2sc(S(C)(=O)=O)nc2S(=O)(=O)c2ccc(Cl)cc2)C1 (centres undefined),-12,-9,12,-8,-6,i,-5,-5,

# Next records
SMILES,Yeast UUG start,CSC inhib,PABP FP inh,MT1-MMP act inh,MT1-MMP act inh RFP,Rce1 inhib,eIF4H FP inh,HIV Env fusion,others
CC(C)c1ccc(S(=O)(=O)N2CCN(C(=O)n3ccnc3)CC2)cc1,-28,-8,.,-1,0,.,.,.,
Nc1nonc1C(=O)NCCNC(=O)c1ccc(Cl)c(Cl)c1,-8,-7,7,1,0,.,8,-10,
O=C(Cn1ccc2ccccc2c1=O)NCCC(=O)N1CCN(C2CCCCC2)CC1,5,-4,2,3,1,i,4,-18,
O=C(NN1CCOCC1)c1ccccc1NS(=O)(=O)c1ccc(F)cc1F,11,-17,.,-5,0,.,.,13,
C=CCCC(=O)N1CCCC(C(=O)c2cccc(OC)c2)C1 (centres undefined),-12,20,-7,1,4,i,6,-8,
O=C(NCCc1ccccc1)c1ncn[nH]1,10,-16,2,1,-3,i,-8,-87,
CCCC(=O)N1CCN(c2ccc(NC(=O)c3sc4ccccc4c3Cl)cc2)CC1,-11,.,1,2,-3,i,8,.,
Cc1c(Cl)cnc(NC(=O)COC(=O)c2cccc(S(=O)(=O)N3c4ccccc4CC3C)c2)c1Cl (centres undefined),.,7,7,-3,-1,i,-1,9,
Cc1ccc(NC(=O)C2CCN(S(=O)(=O)c3cccc(C(F)(F)F)c3)CC2)nc1,-14,6,.,3,-27,i,.,36,
Cc1ccc(C(=O)Nc2ccc3c(c2)CCC3)cc1,.,19,5,3,3,i,-4,-87,

# Filtered by structure, those above containing an aryl methoxy group
SMILES,Yeast UUG start,CSC inhib,PABP FP inh,MT1-MMP act inh,MT1-MMP act inh RFP,Rce1 inhib,eIF4H FP inh,HIV Env fusion,others
COc1cccc(OCc2cc(C(=O)N(C)C3CCCCC3)no2)c1,-22,.,.,6,1,.,.,-48,
COc1cccc(Cn2c3ccc(NC(=O)CCc4ccc(F)cc4)cc3c(=O)n2C)c1,-3,.,.,12,-15,.,.,-69,
COc1ccccc1OCC(=O)N1CCN(C(=O)COc2ccccc2OC)CC1,7,.,5,0,1,i,9,-7,
COc1ccccc1-n1c(SCC(=O)O)nc2c(sc(=S)n2-c2ccc(C)c(C)c2)c1=O,-24,10,10,4,6,i,-7,-3,
COc1ccc(CN2C(=O)CS/C2=N/N=C/c2ccccc2)cc1,-6,11,8,1,-13,i,-8,-21,
COc1ccc(C(=O)NCc2nnc(SCC(=O)N3CCCCC3)o2)cc1OC,-8,6,-9,1,4,i,-8,.,
COc1ccc(OCc2nnc(SCC(=O)N(C)Cc3ccccc3)n2N)cc1,.,1,7,1,2,i,1,18,
COc1ccc(S(=O)(=O)NCC2CCC(C(=O)O)CC2)cc1 (centres undefined),-14,-22,-3,-3,-3,i,73,7,eIF4H FP inh retest=-4;PABP FP inh retest=9
COc1cc(/C=C/c2nc3ccccc3c(=O)[nH]2)cc(OC)c1OC,-4,7,-2,4,4,i,-11,2,
C=CCCC(=O)N1CCCC(C(=O)c2cccc(OC)c2)C1 (centres undefined),-12,20,-7,1,4,i,6,-8,
